# Screening data as filed in PubChem.
# Mtb growth: Mycobacterium tuberculosis H37Rv growth inhibition, putative kinase inhibitor library, confirmatory dose response (AID 2842) | 24,000 compounds, 5.2% hits | M. tuberculosis H37Rv growth inhibition; higher % means a stronger effect; some inactives read as strong as hits | inhibition, % at 10 µg/mL; hits with a dose series show IC90 in µg/mL;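 active = confirmed in a dose series; inconclusive = mostly over 85% at the one dose but not retested; inactive = below 85% or not confirmed; about a fifth of its hits are not listed in these tables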;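 also: bacteria incubated one week before Alamar blue readout; 0% = bacteria only wells and 100% = bacteria with high antibiotic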
# Numbers without * were called inactive; u = inconclusive. A portion of the library, so the mix of outcomes need not match the whole.
Compound	Mtb growth
O=C(OC1CCCCC1)c1cc2ccccc2oc1=O	49µg/mL*
CCOc1ccc(N2CC(NS(=O)(=O)c3cccs3)CC2=O)cc1 (stereo unspecified)	2%
COc1ccc(C)cc1-n1c(-c2ccccc2)cn2c3c(=O)[nH]c(=O)n(C)c3nc12	-9%
O=C(CSc1nc2c(cnn2-c2ccccc2)c(=O)[nH]1)N1CCCCC1	4%
CC(C)(C)CC(=O)Nc1c(C(=O)Nc2ccc3c(c2)OCO3)oc2ccccc12	2%
COc1ccc(C(=O)Nc2nc(-c3ccc4c(c3)CCCC4)cs2)cc1	-10%
CCCNS(=O)(=O)c1cc2c3c(c1)C(C)C(=O)N3CCC2 (stereo unspecified)	-4%
O=C(Cn1cnc2c(cnn2-c2ccc(F)cc2)c1=O)Nc1ccc(F)cc1	-6%
C=CCn1c(=NC(=O)c2ccc([N+](=O)[O-])s2)sc2cc(S(C)(=O)=O)ccc21	-18%
NS(=O)(=O)c1ccc(CCNC(=O)c2c(O)nc3sccn3c2=O)cc1	2%
O=C(Nc1nnc(-c2ccncc2)o1)c1ccccc1F	u
CCOC(=O)c1csc(Nc2nc3ccc(F)cc3s2)n1	19%
O=C(COc1ccc2c(=O)c(-c3ccc(Cl)cc3)coc2c1)N1CCCCC1	8%
O=C(Nc1nc2ccccc2s1)c1ccc([N+](=O)[O-])cc1Cl	80%
Clc1cccc2sc(N3CCN(c4ccccc4)CC3)nc12	7%
O=C(Nc1ccc(S(=O)(=O)N2CCOCC2)cc1)c1cc(-c2ccncc2)nc2ccccc12	-5%
O=C1CCc2cc(S(=O)(=O)Nc3cccc(Cl)c3)cc3c2N1CC3	-10%
Cn1c(=O)[nH]c(=O)c2c1nc(N1CCOCC1)n2CC(O)c1ccccc1 (stereo unspecified)	-1%
CC(=O)c1sc(NC(=O)c2ccc(N3C(=O)CCC3=O)cc2)nc1C	9%
COc1ccc(NS(=O)(=O)c2cc3c4c(c2)CCC(=O)N4CCC3)cc1Cl	-8%
Cc1ccc(NC(=O)CSc2nnc(CCC(=O)O)c(=O)n2N)c(C)c1	-3%
COc1ccc(C(=O)Nc2nnc(-c3ccco3)o2)cc1OC	u
[N-]=[N+]=N[C@@H]1C[C@@H](CO)O[C@H]1n1ccc(=O)[nH]c1=O	-8%
O=C1N=c2ccc(Br)cc2=C1c1sc(=S)n(C(Cc2ccccc2)C(=O)O)c1O (stereo unspecified)	4%

# In the list so far, two have a COOH group:
Compound	Mtb growth
Cc1ccc(NC(=O)CSc2nnc(CCC(=O)O)c(=O)n2N)c(C)c1	-3%
O=C1N=c2ccc(Br)cc2=C1c1sc(=S)n(C(Cc2ccccc2)C(=O)O)c1O (stereo unspecified)	4%

# The listing continues.
Compound	Mtb growth
Oc1c(C(c2cccs2)N2CCOCC2)sc2ncnn12 (stereo unspecified)	3%
CC1CCc2c(sc3ncnc(SCC(=O)c4ccccc4)c23)C1 (stereo unspecified)	-1%
CC(C)CC(=O)Nc1c(C(=O)Nc2ccc3c(c2)OCCO3)oc2ccccc12	43%
CCc1ccccc1N/C=C(\C#N)c1nc(-c2ccc3c(c2)OCO3)cs1	2%
COc1cc2ccccc2cc1C(=O)Nc1ccc2c(c1)C(=O)N(C)C2=O	10%
O=C(CSCCSCC(=O)Nc1ccccc1)Nc1ccccc1	-10%
COC(=O)c1cccc(Nc2ncnc3scc(-c4ccc(Cl)cc4)c23)c1	14%
O=C(Nc1cccc(I)c1)C(=O)c1c(O)[nH]c2ccccc12	4%
CC1CCc2c(sc(NC(=O)c3ccc(Br)cc3F)c2C#N)C1 (stereo unspecified)	2%
CC(C)(C)C(=O)Nc1nnc(-c2cc(Cl)ccc2Cl)o1	<0.2µg/mL*
CCn1c(O)c(N=NC(=O)Cn2cnc3sc(C)c(-c4ccccc4)c3c2=O)c2ccccc21	-2%
CC1Cc2nc(SCC(=O)Nc3cccc(Cl)c3)n(Cc3ccccc3)c(=O)c2S1 (stereo unspecified)	-2%
Cc1ccc2c(c1)C(c1ccc(F)cc1)N(C(=O)C(C)Oc1ccccc1)CC(=O)N2 (stereo unspecified)	11%
CCOC(=O)c1nn(-c2ccc(OC)cc2)c(=O)c2c(NC(=O)c3ccc(OC)c(OC)c3)scc12	1%
CCCCC(Sc1nc(N)c(NC(=O)c2ccc(OCC)cc2)c(=O)[nH]1)C(=O)O (stereo unspecified)	-13%
O=C(Nc1nc2ccc(Cl)cc2s1)c1cccc(C(F)(F)F)c1	1%
COc1ccc(S(=O)(=O)c2cn(CC(=O)Nc3cccc(C)c3)c3ccccc3c2=O)cc1	9%
N#Cc1c(NC(=O)c2ccc(-c3nc4ccccc4s3)s2)sc2c1CCN(Cc1ccccc1)C2	25%
Cn1c(SCC(=O)c2ccccc2)nc2c1c(=O)[nH]c(=O)n2C	-1%
O=C(/C=C/c1ccc(-c2ccc([N+](=O)[O-])cc2)o1)N1CCOCC1	1%
Cc1ccc(NC(=O)CSc2ncnc3ccccc23)cc1	1%
COc1ccc(OC(C)C(=O)Nc2ccc(C)cc2Br)cc1 (stereo unspecified)	7%
COc1cccc2c(=O)n(CC(=O)Nc3ccc(Cl)cc3)ccc12	-9%
C=CCn1c(NCCc2ccccc2)nc2c1c(=O)n(C)c(=O)n2C	3%
CCOc1ccc(C(=O)c2cn(Cc3ccccc3)c3cc4c(cc3c2=O)OCCO4)cc1	38%
Cn1cc(SCC(=O)Nc2ccc(F)cc2)c2ccccc21	7%
CC1CC(C)CN(c2nc(NCCO)c3cnn(C)c3n2)C1 (stereo unspecified)	4%
COC(=O)c1c(C)oc2ccc(NS(=O)(=O)c3ccc4c(c3)oc(=O)n4C)cc12	5%
CC(Sc1nncn1C)C(=O)Nc1nnc(-c2ccccc2)s1 (stereo unspecified)	-7%
O=C(O)c1cc(Nc2nc(-c3ccccc3)c3cc(Br)ccc3n2)ccc1O	-1%
Cn1c(=O)[nH]c(=O)c2c1nc(N1CCC(Cc3ccccc3)CC1)n2CCSc1nnnn1-c1ccccc1	-1%
COCCNC(=O)CSc1nnc2[nH]c(=O)c(C)c(C)n12	-4%
CCN1C(=O)c2cccc3c(NC(=O)c4ccc(OC)c(OC)c4)ccc1c23	-4%
Cc1ccc(SCC(=O)Nc2ccc3c(c2)C(=O)NC3=O)cc1	-24%
CC(=O)NNc1nc(-c2ccccc2)c2cc(Cl)ccc2n1	6%
Cc1c(C)n2c(SCC(=O)Nc3nc4ccccc4s3)nnc2[nH]c1=O	-2%
CCS(=O)(=O)c1ccc(C(=O)Nc2sccc2C#N)cc1	4%
CC(=O)Nc1ccc(NC(=O)CC2Nc3cccc4cccc(c34)NC2=O)cc1 (stereo unspecified)	-9%
COc1ccc(C(=O)Nc2c(N)nc(SCc3ccc([N+](=O)[O-])cc3)[nH]c2=O)cc1	-1%
Cn1c2c(c(=O)n(C)c1=O)C(c1ccncc1)C1=C(CCCC1=O)N2 (stereo unspecified)	-2%
CCn1c(SCC(=O)NCC2CCCO2)nc2c(c1=O)SC(C)C2 (stereo unspecified)	0%
Cc1cc(NC(=O)CS(=O)(=O)c2cn(Cc3cccc(F)c3)c3ccccc23)no1	1%
c1ccc(Nc2ncnc3nc[nH]c23)cc1	-5%
N#CC1=C(SCC(=O)Nc2ccccc2Cl)NC(=O)CC1c1cccc([N+](=O)[O-])c1 (stereo unspecified)	64%
COc1ccccc1Nc1nc(Nc2ccccc2OC)nc(N2CCOCC2)n1	-12%
Cc1ccc(NS(=O)(=O)c2c[nH]c(=O)[nH]c2=O)cc1	-1%
CCS(=O)(=O)c1cccc(C(=O)Nc2sc3c(c2C(N)=O)CCCCC3)c1	3%
COc1ccccc1-c1nc(C(N)=O)c2[nH]c(=O)n(-c3ccc(C(C)(C)C)cc3)c2n1	9.9µg/mL*

# Copied from the results shown (four entries):
Compound	Mtb growth
O=C(OC1CCCCC1)c1cc2ccccc2oc1=O	49µg/mL*
CCOc1ccc(N2CC(NS(=O)(=O)c3cccs3)CC2=O)cc1 (stereo unspecified)	2%
COc1ccc(C)cc1-n1c(-c2ccccc2)cn2c3c(=O)[nH]c(=O)n(C)c3nc12	-9%
O=C(CSc1nc2c(cnn2-c2ccccc2)c(=O)[nH]1)N1CCCCC1	4%

# Next compounds.
Compound	Mtb growth
CCC(Sc1ccc2nnc(-c3ccc(C)cc3)n2n1)C(=O)O (stereo unspecified)	-17%
CC1CCN(S(=O)(=O)c2ccc(C(=O)Nc3ccccc3-c3nc4ccccc4s3)cc2)CC1	-4%
NC(=O)c1oc2ccccc2c1NC(=O)c1cccc(N2C(=O)CCC2=O)c1	-6%
O=C(CSc1nnc(-c2cccc(Cl)c2)n1-c1ccccc1)c1cccc([N+](=O)[O-])c1	-4%
Cc1cccc(NC(=O)CSc2nc3c(c(=O)n2Cc2ccccc2)SC(C)C3)c1 (stereo unspecified)	13%
COCCCNc1nc2c(c(=O)[nH]c(=O)n2C)n1CC(=O)c1ccccc1	-16%
N#C/C(=C\c1ccc([N+](=O)[O-])cc1)c1nc2ccccc2[nH]1	6.1µg/mL*
O=C(Nc1ccc(F)cc1Cl)c1cnc2n(c1=O)CCS2	2%
Cc1ccc(C)c(CSc2nnc3[nH]c(=O)c(C)c(C)n23)c1	2%
COc1ccc(-c2nnc3ccc(SCC(=O)Nc4ccc(Cl)cc4)nn23)cc1	10%
CC(=O)Nc1ccc2nc(NC(=O)c3ccc(C)cc3)sc2c1	-1%
O=C(Nc1c(C(=O)Nc2ccc(OC(F)(F)F)cc2)oc2ccccc12)c1ccccc1Cl	6%

# Quoted from the listing.
# COc1ccc(-c2nnc3ccc(SCC(=O)Nc4ccc(Cl)cc4)nn23)cc1 in Mtb growth is entered as 10%
# Cc1cccc(NC(=O)CSc2nc3c(c(=O)n2Cc2ccccc2)SC(C)C3)c1 (stereo unspecified) in Mtb growth is entered as 13%
# Cc1ccc(C)c(CSc2nnc3[nH]c(=O)c(C)c(C)n23)c1 in Mtb growth is entered as 2%

# (more compounds)
Compound	Mtb growth
O=C(CCCS(=O)(=O)c1ccccc1)Nc1nc2c(Cl)ccc(Cl)c2s1	26%
Cc1ccc(C)c2c1sc(=NC(=O)CN1C(=O)CCC1=O)n2C	-12%
COc1ccc(C2CC(c3cccc(NS(C)(=O)=O)c3)=NN2C(=O)C2CCCCC2)cc1 (stereo unspecified)	-7%
OCCN1CCN(c2ncnc3c2cnn3-c2ccc(Cl)c(Cl)c2)CC1	15µg/mL*
Cc1cc(SCc2ccc(C(F)(F)F)cc2)nc(=O)[nH]1	-1%
O=C(Nc1nc(-c2ccncc2)cs1)c1ccc2c(c1)CCCC2	3%
COc1ccc(/C=N/Nc2nncc(=O)[nH]2)c(OC)c1	11%
O=C(O)c1cccnc1SC1CC(=O)N(c2cccc(Cl)c2Cl)C1=O (stereo unspecified)	5%
COc1ccc(-c2nnc(NC(=O)c3cc(Cl)ccc3Cl)o2)cc1	u
CCOC(=O)CSc1nnc(NC(=O)c2ccc(S(=O)(=O)N(C)C)cc2)s1	7%
O=C(Nc1nnc(-c2ccccc2Cl)s1)C1CCCCC1	8%
COc1ccccc1-c1nc2s/c(=C\c3cccc4ccccc34)c(=O)n2n1	46%
Cc1ccc(-c2nnc(NC(=O)Cc3ccccc3)o2)c(C)c1	15µg/mL*
COc1cccc2sc(N(CCCn3ccnc3)C(=O)c3cccc(F)c3)nc12	76%
O=c1ccc(-c2ccccc2)nn1CCNS(=O)(=O)c1cccs1	-7%
O=C1C(=O)N(CCCN2CCOCC2)C(c2cccc(F)c2)/C1=C(\O)c1ccncc1 (stereo unspecified)	-4%
O=c1oc2ccccc2cc1-c1csc(Cc2nc(-c3cc4ccccc4oc3=O)cs2)n1	14%
Cc1cc(NC(=O)c2ccccc2[N+](=O)[O-])nc2c1c(=O)oc1ccccc12	27%
Cc1cc(SCc2ccccc2F)nc(=O)[nH]1	-11%
O=[N+]([O-])c1ccc(CSc2ccc3nnc(-c4ccncc4)n3n2)cc1	-3%
CCOC(=O)c1sc(NC(=O)c2cccnc2)c(C(=O)OCC)c1C	9%
CC(C)OC(=O)COc1ccc2cc(-c3ccccc3)c(=O)oc2c1	3µg/mL*
N#CCc1nc(-c2ccccc2)c(NC(=O)c2ccco2)s1	4%
O=C(NNc1ncnc2c1cnn2-c1ccc(Cl)cc1)c1cccc(Cl)c1	65%
O=C(Nc1nc(-c2cc3ccccc3oc2=O)cs1)c1ccc2ncsc2c1	-3%
O=c1cc(N2CCN(c3ccc(F)cc3)CC2)[nH]c(=O)n1-c1ccc(Cl)cc1	-7%
Cn1c(=O)c2c(nc(Br)n2CC(=O)c2ccccc2)n(C)c1=O	3%
Cc1cccc(-n2nnc3c(=O)n(Cc4cccnc4)cnc32)c1	4%
O=C(Nc1nnc(SCc2ccc(F)cc2)s1)C1CC(=O)N(c2ccccc2)C1 (stereo unspecified)	19%
O=C(Nc1ccc2c(c1)C(=O)NC2=O)c1ccc(Cc2ccccc2)cc1	-6%
Cc1ccc(NCC(O)Cn2c3ccccc3n3c(=O)cc(C)c(C#N)c23)cc1Cl (stereo unspecified)	9%
Cn1c(=O)c2c(SCC(=O)Nc3cc(C(F)(F)F)ccc3Cl)nc(-c3cccs3)nc2n(C)c1=O	7%
CCc1ccc(-c2nnc3c4cc5c(cc4n(Cc4ccc(OC)cc4)cc2-3)OCCO5)cc1	5.4µg/mL*
COc1ccc(-n2ccnc(SCc3ccc(F)cc3Cl)c2=O)cc1	-5%
COc1ccc(-c2nnc(NC(=O)Cc3ccc(OC)c(OC)c3)s2)c(OC)c1	-6%
COc1cccc(-c2csc(NC(=O)COc3ccc(Cl)cc3Cl)n2)c1	3%
Cc1ccc2sc(NNC(=O)c3cccs3)nc2c1C	23µg/mL*

# Some of the entries so far, field by field:
> O=C(Nc1c(C(=O)Nc2ccc(OC(F)(F)F)cc2)oc2ccccc12)c1ccccc1Cl
  Mtb growth = 6%

> O=C(CCCS(=O)(=O)c1ccccc1)Nc1nc2c(Cl)ccc(Cl)c2s1
  Mtb growth = 26%
